Vaccinia Venus – inhibitors of vaccinia virus (Venus reporter); AID 720580; actives 0.46% (n = 330,000); Potency, µM (highest dose often 36.5 µM), for inactives: at the top dose activity change, negative = inhibition, actives largely listed as inhibitors; Vaccinia virus Venus reporter expression, fluorescence; active means well fitted inhibition curve with a large enough effect; inconclusive means small, poorly fitted or top-dose-only effect; inactive means no such curve, though single readings can be large or run the other way; tested in A549 cells; also: nearly all actives have a fitted effect of over 30% in size; inactives centre near -10
VACV mCherry inh – vaccinia inhibition (mCherry reporter). Vaccinia virus mCherry reporter infection, fluorescence; about a quarter of the inactives have no number. Potency, µM (top dose mostly 36.5 µM), for the others: at the top dose activity change, negative = inhibition, actives largely listed as inhibitors. actives 0.63% (n = 310,000); active = well fitted inhibition curve with a large enough effect; inconclusive = small, poorly fitted or top-dose-only effect; inactive = no such curve, though single readings can be large or run the other way; tested in A549 cells; also: nearly all actives have a fitted effect of over 35% in size; inactives centre near -10
* hit, by the source's call; & = joins results of further samples. % is scaled to controls: 0 for no effect and ±100 for the full control effect; potency is read from the fitted curve at half-maximal effect.

Screening CC(=O)NC(CC(=O)OCc1ccc([N+](=O)[O-])cc1)c1ccccc1 (stereo not given) returned Vaccinia Venus -5% and VACV mCherry inh -29%.
`Cc1ccc(NC(=O)CSc2sc3c(O)cc(=O)[nH]c3c2C#N)c(F)c1` gave Vaccinia Venus 0% and VACV mCherry inh -13%.
Screening COc1ccc(/C=C/C(=O)O)cc1COc1ccccc1C returned Vaccinia Venus -12% and VACV mCherry inh -11%.
For O=C(CSc1nccc(=O)[nH]1)N1N=C2/C(=C/c3ccco3)CCCC2C1c1ccco1 (stereo not given) the results were Vaccinia Venus -15% and VACV mCherry inh -13%.
Screening CCOC(=O)N1CCc2c(sc(NCc3cccs3)c2C(=O)Nc2cc(Cl)ccc2OC)C1 returned Vaccinia Venus -11% and VACV mCherry inh -12%.
Screening CC(C)OC(=O)c1cccc(NC(=O)Cn2nnc3sc4c(c3c2=O)CCCC4)c1 returned Vaccinia Venus -11% and VACV mCherry inh -8%.
`COc1ccc(-c2nc[nH]c2[N+](=O)[O-])cc1` gave Vaccinia Venus -5% and VACV mCherry inh 0%.
For CCOC(=O)C1=C(C)N(CCCC(=O)NCc2ccc3c(c2)OCO3)C(=O)NC1c1ccc(Br)cc1 (stereo not given) the results were Vaccinia Venus inconclusive and VACV mCherry inh inactive.
Screening O=C(CNC(=O)C1CCCCC1)NC1CCCCC1 returned Vaccinia Venus -7% and VACV mCherry inh -10%.
Screening Cc1nc2ccc(S(=O)(=O)NCC(=O)Nc3ccc(F)cc3F)cc2s1 returned Vaccinia Venus -2% and VACV mCherry inh -8%.
`CCCNC(=O)c1ccc2nc(-c3ccccc3)c(-c3ccccc3)nc2c1` gave Vaccinia Venus -2% and VACV mCherry inh -4%.
For CN(C)c1ccc(CC(=O)N2CCCC(c3cc(C(=O)Nc4ccc(F)c(Cl)c4)no3)C2)cc1 (stereo not given) the results were Vaccinia Venus -6% and VACV mCherry inh 1%.
For N#Cc1nc(-c2ccc(OCc3ccc(Cl)cc3)cc2)oc1N1CCOCC1 the results were Vaccinia Venus -15% and VACV mCherry inh -18%.
`O=c1cc(-c2ccccc2Cl)oc2c(NS(=O)(=O)c3ccccc3C(F)(F)F)ccc(O)c12` gave Vaccinia Venus -26% and VACV mCherry inh inconclusive.
Screening CCC1NC(=O)c2cc3ccccc3cc2-n2c1nc1ccc(F)cc1c2=O (stereo not given) returned Vaccinia Venus -18% and VACV mCherry inh -3%.

Entries shown so far that contain a carbonyl joined to an NH by a bond outside any ring (nine):
Screening CC(=O)NC(CC(=O)OCc1ccc([N+](=O)[O-])cc1)c1ccccc1 (stereo not given) returned Vaccinia Venus -5% and VACV mCherry inh -29%.
`Cc1ccc(NC(=O)CSc2sc3c(O)cc(=O)[nH]c3c2C#N)c(F)c1` gave Vaccinia Venus 0% and VACV mCherry inh -13%.
Screening CCOC(=O)N1CCc2c(sc(NCc3cccs3)c2C(=O)Nc2cc(Cl)ccc2OC)C1 returned Vaccinia Venus -11% and VACV mCherry inh -12%.
Screening CC(C)OC(=O)c1cccc(NC(=O)Cn2nnc3sc4c(c3c2=O)CCCC4)c1 returned Vaccinia Venus -11% and VACV mCherry inh -8%.
For CCOC(=O)C1=C(C)N(CCCC(=O)NCc2ccc3c(c2)OCO3)C(=O)NC1c1ccc(Br)cc1 (stereo not given) the results were Vaccinia Venus inconclusive and VACV mCherry inh inactive.
Screening O=C(CNC(=O)C1CCCCC1)NC1CCCCC1 returned Vaccinia Venus -7% and VACV mCherry inh -10%.
Screening Cc1nc2ccc(S(=O)(=O)NCC(=O)Nc3ccc(F)cc3F)cc2s1 returned Vaccinia Venus -2% and VACV mCherry inh -8%.
`CCCNC(=O)c1ccc2nc(-c3ccccc3)c(-c3ccccc3)nc2c1` gave Vaccinia Venus -2% and VACV mCherry inh -4%.
For CN(C)c1ccc(CC(=O)N2CCCC(c3cc(C(=O)Nc4ccc(F)c(Cl)c4)no3)C2)cc1 (stereo not given) the results were Vaccinia Venus -6% and VACV mCherry inh 1%.

Of the compounds above, 3 have an NH in an aromatic ring.
`Cc1ccc(NC(=O)CSc2sc3c(O)cc(=O)[nH]c3c2C#N)c(F)c1` gave Vaccinia Venus 0% and VACV mCherry inh -13%.
For O=C(CSc1nccc(=O)[nH]1)N1N=C2/C(=C/c3ccco3)CCCC2C1c1ccco1 (stereo not given) the results were Vaccinia Venus -15% and VACV mCherry inh -13%.
`COc1ccc(-c2nc[nH]c2[N+](=O)[O-])cc1` gave Vaccinia Venus -5% and VACV mCherry inh 0%.

Next entries.
For Cc1cc(NC(=O)CSc2nnc(C)n2-c2ccccc2)no1 the results were Vaccinia Venus -9% and VACV mCherry inh inactive.
`CC1CN(c2cc(=O)n(-c3cccc(Br)c3)c(=O)[nH]2)CC(C)O1` (stereo not given) gave Vaccinia Venus 7% and VACV mCherry inh inactive.
Screening COc1ccc(Cl)cc1NC(=O)C(C)N(C)Cc1ccc(C(F)(F)F)cc1 (stereo not given) returned Vaccinia Venus -16% and VACV mCherry inh inactive.
CN(C)c1ccc(C=Nc2ccc(/C=C3\C=Cc4ccccc43)cc2)cc1 was read as Vaccinia Venus -18% and VACV mCherry inh inconclusive.
CCCCSc1nc(O)cc(=O)n1CC was read as Vaccinia Venus -8% and VACV mCherry inh -3%.
For COC(=O)c1sc2ccccc2c1S(=O)(=O)N1CCN(c2ccc(C(C)=O)cc2)CC1 the results were Vaccinia Venus 14% and VACV mCherry inh 0%.
CN(C)C(=O)CCc1ccc2c3c([nH]c2c1)[C@]1(C)[C@@H](C(=O)N2CCCCC2)C[C@H](CC(=O)NCCN2CCOCC2)C(=O)N1CC3 was read as Vaccinia Venus -5%.
Cc1ccc(OC(=O)CSc2nnc(-c3cccs3)o2)c(C)c1 was read as Vaccinia Venus -8% and VACV mCherry inh -12%.
For COc1ccccc1NS(=O)(=O)c1cccc(C(=O)N/N=C(\C)c2ccncc2)c1 the results were Vaccinia Venus -13% and VACV mCherry inh -5%.
For CN1C(=S)SC(N(O)C(=O)Nc2ccccc2)C1(C)C (stereo not given) the results were Vaccinia Venus -14% and VACV mCherry inh -12%.
Cc1ccc(-n2c(=O)[nH]c3c(C(N)=O)nc(CC(C)C)nc32)cc1 was read as Vaccinia Venus inconclusive and VACV mCherry inh inconclusive.
For Cc1oc(C(=O)O)cc1CSc1nnc(-c2ccccc2)n1C the results were Vaccinia Venus -3% and VACV mCherry inh -14%.
`CCN(CC)S(=O)(=O)c1ccc(SCC(=O)c2c(N)n(C3CC3)c(=O)[nH]c2=O)nc1` gave Vaccinia Venus -19% and VACV mCherry inh -14%.
`CCN(CC1CCCO1)C(=O)CCc1nnc(CCc2ccc(OC)cc2)o1` (stereo not given) gave Vaccinia Venus -9% and VACV mCherry inh inactive.
CC1CCCCN1C(C(=O)O)c1ccccc1 (stereo not given) was read as Vaccinia Venus -11% and VACV mCherry inh -3%.
`CN(CC(=O)Nc1cccc(F)c1)C(=O)/C=C/c1ccc(Br)s1` gave Vaccinia Venus 4% and VACV mCherry inh inactive.
Screening COc1cccc(/C=N/NC(=O)Cn2cnc3c2c(=O)n(C)c(=O)n3C)c1OC returned Vaccinia Venus 2% and VACV mCherry inh -9%.
CC(C)C[C@H]1CN=C(Nc2ccccc2)N1CCC1CCCCC1 was read as Vaccinia Venus -19% and VACV mCherry inh inactive.
C[C@H]1CN([C@@H](C)CO)C(=O)c2cc(NC(=O)CCN3CCOCC3)ccc2O[C@H]1CN(C)C(=O)Nc1ccc(F)cc1 was read as Vaccinia Venus -8% and VACV mCherry inh inactive.
Screening CSCCCNC(=S)Nc1cccc(S(=O)(=O)NC2=NCCC2)c1 returned Vaccinia Venus -6% and VACV mCherry inh -15%.
COc1cc(Nc2ncc3c(n2)CCN(Cc2cc(Br)cs2)C3)cc(OC)c1 was read as Vaccinia Venus -15% and VACV mCherry inh -27%.
Screening COc1ccc(NC(=O)CCn2c(-c3ccc(F)cc3)cc(C(C)=O)c2C)c(OC)c1 returned Vaccinia Venus 0% and VACV mCherry inh -13%.
For COc1ccc(C(=O)C2CCCN(C(=O)/C=C/c3ccccn3)C2)c(C)c1 (stereo not given) the results were Vaccinia Venus 1% and VACV mCherry inh inactive.
`COc1ccc(C(=O)Nc2ccc3nc(SCC(=O)N4CCc5ccccc54)sc3c2)cc1` gave Vaccinia Venus 3% and VACV mCherry inh 17%.
For CC(NC(=O)COC(=O)c1ccc(Cl)cc1O)c1ccc(F)cc1 (stereo not given) the results were Vaccinia Venus -16% and VACV mCherry inh -7%.
CC(=O)Nc1ccc(NC(=O)c2ccc(Cl)c(S(=O)(=O)N3CCc4ccccc43)c2)cc1 was read as Vaccinia Venus -10% and VACV mCherry inh inactive.
For Cc1cc(C)cc(OCC(=O)Nc2ccc(-c3nc4ncccc4o3)cc2C)c1 the results were Vaccinia Venus inconclusive and VACV mCherry inh inconclusive.
Screening COc1cc(NC(=O)Nc2cc(C)on2)cc(OC)c1OC returned Vaccinia Venus -13% and VACV mCherry inh inactive.
For CC(c1ccccc1)N1CCn2c(nc3cc(NC(=O)c4cccs4)ccc32)C1 (stereo not given) the results were Vaccinia Venus -23% and VACV mCherry inh -9%.
For Cc1ccc(CC2C(=O)N(c3nc(C)cc(C)n3)C(=O)C2C)cc1 (stereo not given) the results were Vaccinia Venus -1% and VACV mCherry inh -15%.
For CN1CCN(CC(=O)N(Cc2c(C#N)c3ccccc3n2C)c2ccccc2)CC1 the results were Vaccinia Venus -7% and VACV mCherry inh inactive.
For CCOC(=O)C1CCCN(S(=O)(=O)c2ccc(S(N)(=O)=O)cc2)C1 (stereo not given) the results were Vaccinia Venus -15% and VACV mCherry inh inactive.
Cc1cc(-c2ccccc2)nc(SCC(=O)N2CCCC2)n1 was read as Vaccinia Venus 4% and VACV mCherry inh -2%.
For COC(=O)c1cc(C)sc1NC(=O)C1C2C=CC(CC2)C1C(=O)O (stereo not given) the results were Vaccinia Venus 0% and VACV mCherry inh -9%.
c1ccc(COc2cccc(CN3CCc4ccccc4C3)c2)cc1 was read as Vaccinia Venus -7% and VACV mCherry inh -8%.
For CC(C)=C[C@@H]1C[C@H](C)[C@H]2CC[C@H](C)c3c(O[C@@H]4O[C@@H](C)[C@@H](O)[C@@H](O)[C@@H]4O)c(O)c(C)c1c32 the results were Vaccinia Venus -27% and VACV mCherry inh -7%.
`C=C(C)COc1ccc(-c2ncncc2-c2ccccc2OC)c(O)c1` gave Vaccinia Venus -26% and VACV mCherry inh -1%.
For O=C(COC(=O)Cc1ccc(F)cc1)NC1CCS(=O)(=O)C1 (stereo not given) the results were Vaccinia Venus 4% and VACV mCherry inh -9%.
For Cc1ccccc1OCC(=O)Nc1ccc(OCc2cc(=O)n3ccsc3n2)cc1 the results were Vaccinia Venus -22% and VACV mCherry inh -14%.
COc1cc(C(=O)N2CCC(c3nc4ccccc4s3)CC2)cc(OC)c1OC was read as Vaccinia Venus 2% and VACV mCherry inh -9%.
CCCCCOC(=O)Cc1c(O)c2ccccc2[nH]c1=O was read as Vaccinia Venus -20%.
CC(=O)Nc1ccc2c(c1)C(=O)c1ccc(Cl)cc1-2 was read as Vaccinia Venus -22% and VACV mCherry inh inactive.
Screening Cc1ccc(O)c(CP(=O)(c2ccccc2)c2ccccc2)c1 returned Vaccinia Venus -11% and VACV mCherry inh -21%.
COCCCNC(=O)c1cn(CC(C)C)c(=O)c2c1c1ccccc1n2C was read as Vaccinia Venus 1%&-3% and VACV mCherry inh -20%&-7%.
COc1ccc(CCNC(=O)CCc2nnc(Cc3ccc4c(c3)OCO4)o2)c(OC)c1 was read as Vaccinia Venus -12% and VACV mCherry inh -5%.
`Cc1cc(Cl)ccc1OC(C)C(=O)Nc1ccc(S(=O)(=O)N2CCOCC2)cc1` (stereo not given) gave Vaccinia Venus -5% and VACV mCherry inh inactive.
Screening Cc1oc2ccc(O)cc2c1C(=O)c1ccccc1 returned Vaccinia Venus 3% and VACV mCherry inh -1%.
`C[C@H](CO)N1C[C@H](C)[C@@H](CN(C)S(=O)(=O)c2ccc(Oc3ccccc3)cc2)OCc2cnnn2CCCC1=O` gave Vaccinia Venus -6% and VACV mCherry inh inactive.
`CCC1(C)Cc2ccccc2-c2nc3n(c(=O)c21)CC(C(=O)O)S3` (stereo not given) gave Vaccinia Venus -1% and VACV mCherry inh -10%.
`NC(=O)NC(Cc1ccccc1)C(=O)N1CCN(S(=O)(=O)c2ccc(Cl)cc2)CC1` (stereo not given) gave Vaccinia Venus -15% and VACV mCherry inh -19%.
Screening CCc1ccccc1NS(=O)(=O)c1cc(Br)cc2c1N(C(=O)C1CC1)CC2 returned Vaccinia Venus -15% and VACV mCherry inh -27%.
COc1ccc(C(=O)OCC2CN2c2cccc([N+](=O)[O-])c2)cc1 (stereo not given) was read as Vaccinia Venus -1% and VACV mCherry inh -4%.
Screening Brc1ccc2nc(N3CCN(c4ccccc4)CC3)sc2c1 returned Vaccinia Venus 4% and VACV mCherry inh -4%.
`CCc1ccccc1NC(=O)c1nnn(CC(=O)Nc2cccc(C)c2)c1N` gave Vaccinia Venus -11% and VACV mCherry inh -17%.
CCOC(=O)C1CCN(S(=O)(=O)c2ccc3oc(=O)ccc3c2)CC1 was read as Vaccinia Venus -12% and VACV mCherry inh -7%.
`O=C1NC(=S)N/C1=C/c1cc([N+](=O)[O-])ccc1N1CCOCC1` gave Vaccinia Venus -6% and VACV mCherry inh -12%.
For CCC(=O)c1ccc(OCC(O)CN2CC(C)OC(C)C2)cc1 (stereo not given) the results were Vaccinia Venus -3% and VACV mCherry inh -21%.
O=C1CNc2cc(Cl)ccc2N1 was read as Vaccinia Venus -16% and VACV mCherry inh -10%.
`COC(C[C@H](O)[C@H](C)[C@@H](O)COCc1ccccc1)OC` gave Vaccinia Venus 1% and VACV mCherry inh -14%.
`CC(=O)c1cccc(N(C(=O)CNC(=O)c2ccco2)C(C(=O)NCC2CCCO2)c2ccccc2)c1` (stereo not given) gave Vaccinia Venus -13% and VACV mCherry inh -11%.

An unsorted share of the library. About 0.82% of those tested had a hit in this group.
